Ba CapD inh: inhibitors of Bacillus anthracis CapD enzyme; purified CapD enzyme, fluorescence intensity read-out; hits give low values; some hits fall short of the stated cut; z-score (no concentration beside the values); actives 0.23% (n = 140,000); AID 492967;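 active means z-score under -4 in either of two replicates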;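 further: stock transfer was 100 nL into about 40 µL; score is relative to mean and spread of the plate; one replicate is shown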
AID504770: growth inhibitors of E. coli YBA685 in a screen for V. cholerae RctB (chromosome II replication) inhibitors; z-score (no concentration beside the values); E. coli YBA685 rctB-dependent plasmid, OD600 growth, 3 h; hits give low values; actives 0.27% (n = 130,000); AID 504770;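 active means z-score under -2 on both plates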;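 further: wells of about 30 µL received 100 nL stock; score is relative to mean and SD of the test wells; the first replicate is given; strong numbers were not always called active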
* = called active by the depositor; · = no result given; & = joins results of further samples. An excerpt. The share of hits here may be higher or lower than overall.

SMILES	Ba CapD inh	AID504770
CCn1c(=O)n(CC)c2cc(N3CCCC3)c(NC(=O)Cc3ccccc3)cc21	0.275	0.3
COc1ccc(C2CC(c3ccc(Br)cc3)=NN2S(=O)(=O)c2ccccc2)cc1OC (configuration not stated)	-0.22	·
CCCc1ccc(S(=O)(=O)NNC(=O)c2ccc(-n3c(C)ccc3C)cc2)cc1	0.075	·
CCCN(CC1CC1)c1cccc(C(=O)O)n1	-1.24	-0.8
CC1CCN(S(=O)(=O)c2ccc3[nH]cc(C(=O)N4CCN(c5ccc(F)cc5)CC4)c(=O)c3c2)CC1	-0.14	2.35
NC(=O)C1(N2CCCCC2)CCN(C(=O)c2ccc(Cn3c(=S)[nH]c4cc5c(cc4c3=O)OCO5)cc2)CC1	-0.165	0
CC1CN(CCn2cnc3c(N)ncnc32)CC(C)O1 (configuration not stated)	-0.65	-1.1
O=C(CCCn1ncn2c(cc3occc32)c1=O)NC1CCCCCC1	-0.14	-0.4
c1ccc(-c2cn3ccccc3n2)cc1	81.3	·
CCO/C=C1/C(=O)NC(=O)c2ccccc21	·	-2.1
Cc1ccc(C(=O)[C@H]2[C@@H]3C4COC(O4)C(=O)[C@H]3[C@@H]3c4ccccc4C=CN23)cc1 (some centres not stated)	-0.16	·
Cc1ccccc1N1CCN(C(=O)OCCCCc2ccc([N+](=O)[O-])cc2)CC1	0.255	·
O=C(O)c1ccccc1Nc1nc(N2CCCC2)nc(N2CCCC2)n1	11.6	·
COc1ccc(CCNC(=O)CCn2c(SCC(=O)NCc3ccccc3)nc3ccccc3c2=O)cc1OC	0.865	·
O=c1c(-c2ccccn2)coc2cc(O)cc(O)c12	-1.4	0.25
Cn1cnc2sc3c(c2c1=O)CCCC3	·	1.2
CCOC(=O)c1cc(C(=O)OCC)n(C)n1	0.295	-0.2
COc1cccc(-n2cc(C(=O)NC3CCCC3)c3ccccc3c2=O)c1	7.43	-0.05
CNC(=O)CSc1nc2cc3c(cc2cc1C)OCCO3	·	0.1
O/N=C(/C(=N/O)c1ccccc1)c1ccccc1	-0.705	-0.95
Cc1ccc(NC2=NCC(C)S2)cc1 (configuration not stated)	-1.04	·
Fc1ccc2[nH]c3nc(=S)[nH]nc3c2c1	0.38	-0.4
O=C(NC1CCCCC1)C1CCCN1C(=O)NCc1ccccc1 (configuration not stated)	·	-0.5
COc1cccc(C2CCCC/C2=N/O)c1 (configuration not stated)	-0.81	2.3
COc1ccc2c(c1)c1c(c(=O)n(-c3cc(Cl)ccc3C)c(=O)n1CC(N)=O)n2C	48.4	0.05
CCOC(=O)N1CCN(C(=O)CSc2nc3c(c(=O)n2Cc2ccccc2)SC(C)C3)CC1 (configuration not stated)	-1.87	-0.4
Nc1c2cnc(N3CCCC3)nc2nc(=O)n1-c1ccc(Cl)cc1	8.63	0.7
CCOC(=O)C1=C(SCc2ccccc2)NC(=O)C(C#N)C12CCCCC2 (configuration not stated)	0.63	0.05
Cc1cc(NC2=CC(=O)CCC2)n(-c2cc(C(F)(F)F)ccc2Cl)n1	1.55	0
CSc1ncc(C(=O)Nc2nc3ccccc3s2)cn1	11	-0.4
CC1CCN(CC(=O)Nc2ccccc2C#N)CC1	0.11	-0.65
COC(=O)C1=C(N)Oc2c(OC)cc(Br)cc2C1C(C#N)C(=O)OC (configuration not stated)	-0.13	·
C=CCNC(=S)N1CCN(C2CCCCC2)CC1	0.375	0.25
CCOC(=O)c1c(NC(=O)C(C)Sc2nnc(CNC(=O)c3ccc([N+](=O)[O-])cc3)n2C)sc2c1CCCC2 (configuration not stated)	-0.225	·
CCc1nc2ccccc2c(=O)n1NC(=O)c1c(O)c2ccccc2n(CC)c1=O	0.675	0.25
CCC(NC(=O)Nc1ccccc1C(=O)OC)(C(F)(F)F)C(F)(F)F	10.1	-0.5
CCOC(=O)CN(C)C1=NS(=O)(=O)c2ccccc21	0.685	-0.4
Cc1cc2ccccn2c1C(=O)c1cccs1	-2.84	-0.5
O=c1ccc(-c2ccc(S(=O)(=O)N3CCCc4ccccc43)s2)n[nH]1	-0.145	-1
CCN(CC(=O)c1ccco1)C1CCCCC1	·	-0.2
N#CCN1CCN(c2ccc(C(F)(F)F)cn2)CC1	-0.73	-0.05
Cc1ccc(N2C(=O)CC(Sc3nc(C)cc(C(F)(F)F)c3C#N)C2=O)cc1 (configuration not stated)	-0.425	·
CCc1cccc(C)c1NC(=O)NC1CCN(c2ncc(C(F)(F)F)cc2Cl)CC1	-0.1	·
O=C1CC(Cc2ccccc2)C(=O)N1c1ccncc1 (configuration not stated)	0.39	-0.55
COc1ccc(C2C(=O)N(C3CCCCCC3)CC(=O)N2C2CCCCC2)cc1 (configuration not stated)	0.095	-0.8
CCC(=O)N1c2ccccc2NC2=C(C(=O)CC(c3cccs3)C2)C1c1ccc(C(F)(F)F)cc1 (configuration not stated)	12.8	·
CN1CCN(C(=O)Nc2cccn(Cc3ccc(Cl)c(Cl)c3)c2=O)CC1	15.1	·
COC(=O)c1ccc(NC(=O)CSc2nc(=O)cc(N)n2-c2ccccc2)cc1	-0.265	0.15
CSc1n[nH]c(NC(=O)Nc2ccccc2)c1S(=O)(=O)c1ccc(Cl)cc1	0.925	0.4
Cc1cc2c(cc1S(=O)(=O)CCC(=O)N1CCCC1)OCC(=O)N2	-0.1	0.35
Cc1cc(C(=O)COC(=O)/C=C/c2ccccc2)c(C)n1-c1nccs1	·	0.1
O=C(c1n[nH]c2c1CCCC2)n1ccnc1	0.96	1.15
S=C=Nc1ccc2c(c1)OCCO2	·	0.15
Cc1nc(CSc2ncnc3sc4c(c23)CCC4)cs1	0.635	-1.25
O=C(/C=C/c1ccc(Cl)cc1)C1(O)CCCCC1	-1.51	-1
COc1cc(OC)nc(Oc2cccc(C(=O)O)c2)n1	-0.04	·
CC(C)/C=N/NC(=O)c1ccc2c(c1)NC(=O)C(C)(C)O2	·	-0.4
N#Cc1ccc(S(=O)(=O)NCC2(O)CCCCC2)cc1	-1.06	·
CSC1=NC=C(C#N)C2=NC(c3ccc(Cl)cc3)NN12 (configuration not stated)	4.52	1.5
Cc1ccc(S(=O)(=O)Nc2ccc(O)c(C(=O)O)c2)c(C)c1	-1.98	-0.3

Complete entries, looked up by structure. Values in the order: Ba CapD inh | AID504770
Listed for `Cc1cc(C(=O)COC(=O)/C=C/c2ccccc2)c(C)n1-c1nccs1` = · | 0.1
Listed for `O=C(c1n[nH]c2c1CCCC2)n1ccnc1` = 0.96 | 1.15
Listed for `CSC1=NC=C(C#N)C2=NC(c3ccc(Cl)cc3)NN12` (configuration not stated) = 4.52 | 1.5
Listed for `Cc1ccc(S(=O)(=O)Nc2ccc(O)c(C(=O)O)c2)c(C)c1` = -1.98 | -0.3

The list continues:
SMILES	Ba CapD inh	AID504770
Cc1nc(N)ccc1I	·	-0.45
O=C(NCC1CCCCC1)c1ccc2ncsc2c1	·	1.6
Cc1cccc2c3c([nH]c12)CCNC3	·	1.35
Cc1cccc(Nc2ccccc2C(=O)O)c1C	-1.21&-0.135	-0.1
CCCS(=O)(=O)c1c(S(=O)(=O)CCC)c2ccccn2c1C(=O)c1ccc(F)cc1	0.54	·
COc1ccc(S(N)(=O)=O)cc1OC	-0.21	0.7
COC(=O)C1=C(C)OC(N)=C(C#N)C1c1ccc(Br)s1 (configuration not stated)	-0.195	·
Cc1ccsc1/C=c1/sc2nc(-c3cccs3)nn2c1=O	0.345	0.45
O=c1nc(N2CCCCCC2)nc(N2CCCCCC2)[nH]1	-0.225	-0.95
O=C(NC1CC1)c1cc(Cl)nc2ccccc12	·	1.4
N#Cc1ccccc1CSc1nc(N)cc(N)n1	·	0.8
O=C1CCCC2=C1C(c1ccc(O)cc1)C1=C(CCCC1=O)N2	1.52	0.25
CCOC(=O)c1ccccc1NC(=O)CSc1ncnc2ccccc12	-0.435	0.3
COc1ccc(C2Nc3ccccc3C(=O)N2c2ccc(Oc3ccccc3)cc2)cc1 (configuration not stated)	3.13	·
Cn1sc(=O)c2cc(S(=O)(=O)NC3CC3)ccc21	3.37	·
COC(=O)c1ccc(C(=S)N2CCCCC2)cc1	-0.575	-0.25
CCOC(=O)C(Cc1ccc(Cl)cc1Cl)C(=O)/C=C/NCC(F)(F)F (configuration not stated)	-0.07	·
CSc1ccccc1-n1nnnc1SCCSc1ccccc1-n1nnnc1SC	0.045	-0.95
CC(C)Cn1c(SCC(=O)Nc2sccc2C#N)nnc1-c1ccccc1F	·	0.8
CC(C)(C)NS(=O)(=O)c1ccc(S(=O)(=O)N2CCCC2)cc1	·	-0.3
O=c1c2ccccc2nc(-c2ccccc2)n1-c1ccc(O)cc1	-0.16	-0.1
O=C(OCCc1ccc(F)cc1)N1CCC(C(O)(c2ccccc2)c2ccccc2)CC1	0.27	·
CCOC(=O)N1CCC(n2c(SCC(=O)N3CCN(c4ccccc4OC)CC3)nc3ccccc3c2=O)CC1	0.575	·
CCOC(=O)c1c(OCCOC(=O)c2cccc(C(F)(F)F)c2)noc1N	-0.67	·
O=C(CN1CCCC1)Nc1cccc(Cl)c1Cl	-0.61	0.75
COc1ccc(OCc2nnc3n2N=C(c2ccc(Br)cc2)CS3)cc1	6.33	-0.45
O=C(OCc1ncc(-c2ccccc2)o1)C1CC2CCCC(C1)C2=O (configuration not stated)	·	-1.6
COc1ccc(N2CCN(CN3C(=O)NC(c4ccccc4)(c4ccccc4)C3=O)CC2)cc1	·	-0.5
O=C(NC1=NCCS1)C12CC3CC(CC(C3)C1)C2	0.225	0.9
Nc1nc2ccc(C(=O)N3CCCCC3)cc2s1	-0.475	-0.1

Given with each value named: four of the compounds above.
O=C(OCCc1ccc(F)cc1)N1CCC(C(O)(c2ccccc2)c2ccccc2)CC1
  Ba CapD inh: 0.27
  AID504770: ·
CCOC(=O)N1CCC(n2c(SCC(=O)N3CCN(c4ccccc4OC)CC3)nc3ccccc3c2=O)CC1
  Ba CapD inh: 0.575
  AID504770: ·
CCOC(=O)c1c(OCCOC(=O)c2cccc(C(F)(F)F)c2)noc1N
  Ba CapD inh: -0.67
  AID504770: ·
O=C(CN1CCCC1)Nc1cccc(Cl)c1Cl
  Ba CapD inh: -0.61
  AID504770: 0.75

(next part)
SMILES	Ba CapD inh	AID504770
O=C(NCCc1ccc(S(=O)(=O)N2CCCC2)cc1)c1cccc2ccccc12	0.08	-0.45
Cc1ccc(Nc2nc3nonc3nc2NC2CCCCC2)cc1C	-0.29	·
CSc1n[nH]c(-c2ccncc2)n1	0.455	-0.5
Cc1cccc(C(=O)OCCN2CCCCC2)c1	-0.215	-0.55
FC(F)(F)c1ccc(N2CCN(Cc3cn[nH]c3-c3ccccc3)CC2)nc1	0.635	-0.9
O=C1CC(c2ccccc2)c2cc(Cl)ccc2O1 (configuration not stated)	-0.18	1.1
C=CCNC(=O)c1ccc(S(=O)(=O)N2CCC(C)CC2)cc1	·	-0.7
CC1(C)Cc2ccccc2C(=C(C#N)C#N)N1	-0.185	·
Cc1ccc2cc(NC(=O)c3cc(C)n(C)n3)ccc2n1	0.06	-0.3
CC(C)n1c(=S)[nH]c2ccccc21	10.2	0.2
CCCn1nc(NS(=O)(=O)c2ccccc2)c2cc3ccccc3nc21	0.83	1.15
C[N+]1(C/C=C2/COCO2)CCCCC1	0.8	0.1
O=C(CS(=O)(=O)Cc1ccccc1)Nc1ccc2c(c1)OCO2	·	-0.95
COc1cc(C(=O)NCc2cccc(C(F)(F)F)c2)nc(OC)n1	-0.25	·
Cc1cc(C=Nc2ccccc2)c(C)n1-c1ccccc1	0.575	0.2
COCCNC(=O)CN1C2CCC1CC(O)(c1cccnc1)C2 (configuration not stated)	·	-0.2
O=C(Cc1ccc(Cl)cc1Cl)NCc1cccnc1	·	2.25
O=C(O)c1ccnc(N2CCCC2)c1	·	-0.15
Cc1ccc(NC(=O)CSC2=C(C#N)C(c3cccs3)C3=C(CCCC3=O)N2)c(C)c1 (configuration not stated)	6.53	·
CNC(=O)Cn1ncc2c(C)n(Cc3ccccc3)c(C)c2c1=O	0.69	-0.35
COC(=O)c1sccc1-n1cc(C#N)c(=O)n(C)c1=O	-0.27	0.1
NC[C@H]1O[C@H](O[C@H]2[C@H](O)[C@@H](O[C@H]3O[C@H](CO)[C@@H](O)[C@H](N)[C@H]3O)[C@H](N)C[C@@H]2N)[C@H](N)[C@@H](O)[C@@H]1O	·	-0.15
CCCCc1nc(Cl)c(C#N)c2c1COC(C)(C)C2	·	-0.5
O=C(/C=C/c1ccco1)NC(=S)n1cnc2ccccc21	0.33	-0.5
Cc1nc2ccccc2nc1SCC(=O)NC1CCCC(C)C1C (configuration not stated)	0.645	-0.6
CCN1C(=O)C2ON(c3ccc(Cl)cc3)C(c3ccccc3)C2C1=O (configuration not stated)	-0.05	-0.9
Clc1cc(CN2CCN(Cc3ccccc3)CC2)ccn1	-0.495	·
COc1cccc(-c2nnc3ccc4ccccc4n23)c1OC	-0.11	·
CC(=O)OC(C(=O)N(Cc1ccccc1)c1ccccc1)c1ccccc1 (configuration not stated)	-0.41	0.95
CC(NC(=O)Cc1ccc(F)cc1)C(c1cccs1)N1CCOCC1 (configuration not stated)	-0.38	-0.85
O=C(CSc1nc(=O)n(Cc2ccccn2)c2c1CCC2)N1CCCCC1	·	0.55
CN(C)C(=O)COc1ncnc2ccccc12	-0.25	-0.6
Cc1nc2sc3c(c2c(=O)o1)CCCCC3	-0.28	·
CC(OC(=O)c1ccc(OC(F)F)cc1)C(=O)NC1CC1 (configuration not stated)	·	0.15
CCOC(=O)c1cnc2ccccc2c1Nc1ccc(C)c(C)c1	-0.58	·
O=C(c1ccccc1)N1CCN2C(=O)c3ccccc3C12c1ccc(Cl)cc1 (configuration not stated)	0.255	·
CSc1nc2c(cnn2-c2ccccc2)c(=O)n1N	0.11	-0.75
CSc1nc2sc3c(c2c2nnc(SCC(=O)Nc4ccccc4)n12)CC(C)(C)OC3	0.03	-0.15

High-throughput results as filed in PubChem BioAssay.
